# Assay outcomes deposited in PubChem by several laboratories.
# INS promoter inh: TRM-6 insulin promoter activity inhibition | TRM-6 cells (human fetal islet line), insulin promoter-eGFP reporter, imaging; reporter expression induced with tamoxifen | inhibition, % at 2 µM | 130,000 tested, 0.9% active;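 active = inhibition above the mean plus 3 SD, with well images judged a real hit on visual review, cut at about 60% in these data, passing the limit was not always enough; inconclusive = inhibition over the cutoff but images rejected on review; inactive = inhibition not above the cutoff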
# HSV augment: HSV replication enhancement. HSV replication augmentation in cells, fold increase. maximum fold increase. 220,000 tested, 0.005% active;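 active = peak rise of 1.5-fold or more in the series; inconclusive = self-fluorescent or not available for retest; tested in PC3 cells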;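 note: first round at 10 µM; read as green reporter fluorescence; hits show the peak of a series up to 25 µM; 1 = signal of infected wells without compound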
# PKD1 inh: PKD1 (human) kinase inhibition; Q15139; PKD1 kinase fluorescence polarization assay; inhibition, %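 (about 10 µM by stock and volumes)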; 200,000 tested, 0.056% active; AID 797;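 active = inhibition of 50% or more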;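 note: controls were vehicle for no effect and a reference inhibitor for full effect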
# GALR2 ag: GALR2 (human) receptor agonism; O43603; GALR2-expressing cells, agonist activation read-out; activation, %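 (tested at 5 µM)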; 140,000 tested, 0.48% active;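 active = above mean plus 3 SD of all compounds, about 5% in these data, not always enough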;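 note: 0% = vehicle buffer wells and 100% = reference agonist at full effect; tested in CHO reporter cells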
# Target sequence (O43603 whole entry, looked up): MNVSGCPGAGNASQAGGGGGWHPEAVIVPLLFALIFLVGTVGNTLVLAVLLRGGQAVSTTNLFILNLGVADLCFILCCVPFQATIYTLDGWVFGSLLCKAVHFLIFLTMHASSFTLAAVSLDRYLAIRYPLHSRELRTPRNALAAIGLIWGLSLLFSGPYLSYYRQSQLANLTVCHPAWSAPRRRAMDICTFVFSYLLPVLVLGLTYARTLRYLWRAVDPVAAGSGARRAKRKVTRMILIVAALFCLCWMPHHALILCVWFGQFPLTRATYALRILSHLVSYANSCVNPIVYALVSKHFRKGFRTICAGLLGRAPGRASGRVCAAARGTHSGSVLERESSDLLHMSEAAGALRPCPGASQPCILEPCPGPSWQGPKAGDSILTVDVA
# RGS16-Gao HTS: modulates binding between human RGS16 and Galphao | O15492+P09471 | bead-based flow cytometry RGS16-Galphao binding, fluorescence; actives lie on both sides | binding response (% of control), % at 10 µM | 220,000 tested, 0.38% active | AID 1441;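 active = below 25% or above 175%, edge rows of some plates excepted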;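 note: Galphao activated by GDP with aluminum fluoride before binding; 100% = wells without compound and 0% = beads without RGS; some results beyond the cut were filed as inactive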
# Target sequence (O15492 whole entry, looked up): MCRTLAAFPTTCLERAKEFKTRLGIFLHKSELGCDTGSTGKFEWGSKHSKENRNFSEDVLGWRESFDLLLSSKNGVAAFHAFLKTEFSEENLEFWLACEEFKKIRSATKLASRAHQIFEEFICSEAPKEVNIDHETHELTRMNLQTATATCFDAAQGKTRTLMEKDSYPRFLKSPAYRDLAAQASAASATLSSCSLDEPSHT
# Target sequence (P09471 whole entry, looked up): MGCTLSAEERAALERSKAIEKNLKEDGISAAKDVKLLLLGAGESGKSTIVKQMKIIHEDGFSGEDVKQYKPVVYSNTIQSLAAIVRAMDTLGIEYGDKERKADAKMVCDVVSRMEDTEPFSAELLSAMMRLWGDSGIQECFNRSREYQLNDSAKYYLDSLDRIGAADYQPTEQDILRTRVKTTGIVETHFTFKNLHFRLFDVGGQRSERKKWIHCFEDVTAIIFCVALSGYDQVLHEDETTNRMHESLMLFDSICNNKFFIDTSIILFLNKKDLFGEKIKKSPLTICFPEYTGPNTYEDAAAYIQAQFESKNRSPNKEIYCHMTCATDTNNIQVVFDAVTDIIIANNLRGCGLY
# INS promoter inh cell count: recorded beside INS promoter inh, whose call it bears; normalized cell count, %; measured here: cell count, toxicity; reference of the scale not given here;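 cells exposed to compound for 48 h; stained nuclei by imaging scaled within each plate; lower means fewer cells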
# HSV augment primary fold: further read-out of HSV augment, marked with its call; fold increase; compound at 10 µM; measured here: primary screen fold increase 10 uM; tested in PC3 cells;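 GFP signal in the first replicate; 1 = infected wells without compound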
# * marks the source's active call; other numbers are inactive results; i = inactive; ? = inconclusive; . = not tested or not shown.
SMILES,INS promoter inh,INS promoter inh cell count,HSV augment,HSV augment primary fold,PKD1 inh,GALR2 ag,RGS16-Gao HTS
CCOc1cc(/C=C2\C(=O)N(Cc3ccc(C)cc3)C(C)=C2C(=O)OC)ccc1O,-40,94,i,1.1,-2,0.3,97
Cc1ccc(-c2noc(CCC(=O)NCc3ccco3)n2)cc1,40,97,i,0.86,1,-2.1,96
CCn1c(=O)c([N+](=O)[O-])c(NCc2ccco2)c2ccccc21,.,.,i,0.93,.,.,97
CN(C)c1ccc(/C=N/N2C(=N)N(c3ccccc3)C(=S)C2=Nc2ccccc2)cc1,-252,79,.,.,-3,-0.7,.
CCn1c(=O)c([N+](=O)[O-])c(NC2CCS(=O)(=O)C2)c2ccccc21 (stereo unspecified),.,.,i,1.1,.,.,100
Cc1ccccc1N1CCN(c2ccc(NC(=O)C3CCCCC3C(=O)O)cc2)CC1 (stereo unspecified),.,.,i,1,-1,-0.7,90
CC(C(=O)Nc1ccc(OCc2ccccc2)cc1)N1CCCC1 (stereo unspecified),.,.,i,0.86,0,.,100
COC(=O)c1cccc(NC(=O)CCNC(=O)c2ccc([N+](=O)[O-])cc2)c1,-17,82,i,0.97,6,-0.7,108
Oc1ccc(N2CCN(C(c3cccnc3)c3nnnn3Cc3ccccc3)CC2)cc1 (stereo unspecified),0,105,i,0.72,-8,-1.8,-26*
CCOC(=O)C1=C(C)NC(=O)NC1c1ccc(OC)c(CN2CCOCC2)c1 (stereo unspecified),-21,147,i,1,-3,-0.5,109
COc1ccc(C(=O)CSc2nc3ccccc3n2CC(=O)c2ccccc2)cc1,-26,140,i,0.85,-4,0.9,100
CC(c1ccco1)N(C(=O)Nc1ccc(Cl)cc1)c1ccccn1 (stereo unspecified),-3,64,i,0.94,-7,-1.4,115
CCCCn1c(NCc2ccncc2)nc2ccccc21,.,.,i,0.99,-3,.,93
Cc1cc(C)cc(C(=O)NN2CCOCC2)c1,-33,109,i,1.1,-3,-0.2,109
CCOc1ccc(N2C(=O)CC(N3CCN(C(=O)c4ccco4)CC3)C2=O)cc1 (stereo unspecified),.,.,i,1,-9,0.3,100
O=C(Cn1nnc(-c2ccccc2)n1)NCc1cccs1,.,.,i,0.75,-6,-2.7,103
NC(=O)CSc1nnc(-c2cc(-c3ccc(Cl)cc3)nc3ccccc23)o1,.,.,i,1,-5,.,97
C=CCSC(=S)NC1CCS(=O)(=O)C1 (stereo unspecified),36,135,i,0.92,-1,-0.9,105
CCCc1nnc(NC(=O)CN2CCN(C)CC2)s1,21,71,i,0.92,-1,-2.6,100
Cc1cc(Nc2ccc(C)c(C)c2)n2nc(C)nc2n1,.,.,i,1.1,-10,-0.4,107
CC(=O)N1CCc2cc(S(=O)(=O)NCCCN3CCN(Cc4ccccc4)CC3)ccc21,-8,116,.,.,3,-1.5,97
O=C(CN1C(=O)c2ccccc2S1(=O)=O)NC1CC2CCC1C2 (stereo unspecified),.,.,i,0.87,-3,-2.1,93
Cc1ccc(-c2nnc(Nc3ccccc3)o2)cc1,.,.,i,0.87,-8,0.9,101
CN(C)C(=S)NCc1ccccc1,-9,164,i,0.74,-6,-4.6,97
COc1ccc(S(=O)(=O)Nc2ccc3c(c2)COC3=O)cc1OC,.,.,i,0.87,-5,-0.6,118
O=C(CN(Cc1cccs1)C(=O)c1csnn1)NC1CCCC1,-414,48,i,0.95,0,-1.0,63
COC(=O)c1c(Cl)c2n3ccccc3c(C)c(-c3ccccc3)c-2c1C(=O)OC,-9,84,?,.,-1,-0.9,15
CCNc1nc(Oc2ccc(F)cc2)cc(C(F)(F)F)n1,.,.,i,0.97,2,.,102
Cn1c(Cn2cnc([N+](=O)[O-])n2)nnc1SCC(=O)Nc1ccc(Br)cc1,7,124,i,0.92,-1,.,101
CCOc1ccc(NC(=O)C(=O)NCC2CCCN2CC)cc1 (stereo unspecified),-27,55,i,0.93,-11,-1.1,103

# Exported with two lines to a compound: 2 of the compounds above
# The line under a structure holds: INS promoter inh, INS promoter inh cell count, HSV augment, HSV augment primary fold, PKD1 inh, GALR2 ag, RGS16-Gao HTS
- Cn1c(Cn2cnc([N+](=O)[O-])n2)nnc1SCC(=O)Nc1ccc(Br)cc1
 : 7, 124, i, 0.92, -1, ., 101
- CN(C)C(=S)NCc1ccccc1
 : -9, 164, i, 0.74, -6, -4.6, 97

# (listing goes on)
SMILES,INS promoter inh,INS promoter inh cell count,HSV augment,HSV augment primary fold,PKD1 inh,GALR2 ag,RGS16-Gao HTS
N=C1/C(=C\c2ccc(OCc3ccccc3)cc2)C(=O)N=C2SC(N3CCCC3)=NN12,.,.,i,0.83,-7,.,92
CCCc1nc2ccc(NC(=O)c3ccco3)cc2c(=O)n1Cc1ccccc1Cl,-56,99,i,1,-4,-1.6,55
CC(=O)c1sc2nc(C)cc(C)c2c1N,77*,91*,i,1,-4,-1.0,100
CCCCNC(=O)c1ccccc1Cl,-11,124,i,0.91,-2,-0.6,102
CC(=O)N(Cc1ccccc1)Cc1cn(CCC#N)nc1-c1cccc([N+](=O)[O-])c1,-25,111,i,0.93,5,.,99
COc1c2ccoc2nc2c(OC)c(OCC(O)C(C)(C)O)ccc12 (stereo unspecified),-27,154,i,0.89,-3,-0.3,112
Cc1ccc(OCC(=O)c2cc(C)n(Cc3cccs3)c2C)c([N+](=O)[O-])n1,.,.,i,1.1,2,.,102
Cc1cc(N2CC(C(=O)NCc3cccs3)CC2=O)ccc1C(C)C (stereo unspecified),0,95,i,1.2,5,-0.3,100
COc1ccc(OC)c(NC(=O)CCN2CCCCCC2)c1,40,133,i,0.95,2,3.3,98
COc1ccc2nc(Nc3nc(C)c(CCC(C)C)c(=O)[nH]3)nc(C)c2c1,8,94,i,0.91,9,-1.4,86
CC(C)CN(C(=O)CN1CCC(C)CC1)c1c(N)n(CC(C)C)c(=O)[nH]c1=O,-18,99,i,0.98,-7,.,102
CN1\C(=C/C=C/C=C/C=[N+](C)C)C(C)(C)c2ccccc21,i,93,.,.,-7,.,80
CCNC(=O)N1c2ccccc2Sc2ccccc21,.,.,i,0.88,1,.,99
C=CCc1ccccc1OCCNCCCOC,-31,101,.,.,1,-0.8,96
C=C1C(=O)O[C@H]2C1CC[C@@](C)(O)C13C=CC(C)(C21)C1(C3)C(=O)O[C@@H]2C3C(C)=CCC3[C@](C)(O)C[C@H](OC(C)=O)C21 (stereo partly specified),-22,97,i,0.6,-12,-0.7,92
CCc1nc(NCc2ccccn2)c2oc3ccccc3c2n1,.,.,i,0.96,.,.,101
CCOCCCNC(=O)NC(=O)CN1CCN(S(=O)(=O)c2ccc3c(c2)OCCO3)CC1,.,.,i,0.85,-11,.,99
O=C(NCc1ccc2c(c1)OCO2)C1CCCN1C(=O)Nc1cccc(Cl)c1 (stereo unspecified),.,.,i,0.73,3,-1.1,105
Cc1ccc(-c2nc3ncccn3c2NC2CCCCC2)o1,-43,112,i,1.1,-7,-2.7,102
CC1CCN(C(=O)CSc2nc3cccnc3n2C)CC1,46,80,i,1,-6,-0.7,105
O=S(=O)(c1ccc2nc(-c3ccccc3)[nH]c2c1)N1CCN(c2ccc(Cl)cc2)CC1,-114,39,i,0.74,0,2.3,104
N#Cc1nc(COc2ccccc2)oc1NCCN1CCOCC1,-31,111,i,0.81,-8,-1.7,158
CCOC(=O)C1CCCN(c2ncnc3c2cnn3-c2ccc(OC)cc2)C1 (stereo unspecified),-82,145,i,1.1,5,0.8,90
O=c1cc(-c2ccccc2)nc(/C=C/c2ccccc2)[nH]1,.,.,i,1.1,.,.,104
Cc1nn2c3ccccc3n(CCN3CCCCC3)c2nc1=O,-30,82,i,1,-6,-1.4,99
CCCNC(=O)C(=O)NCC1CCCN1CC (stereo unspecified),38,84,.,.,-7,.,99
O=C(Cn1c(-c2ccccc2)noc1=O)Nc1ccc(S(=O)(=O)N2CCOCC2)cc1,.,.,i,0.91,9,-1.4,106
O=C(CN1CCOCC1)N1CCN(c2ccc([N+](=O)[O-])cc2)CC1,48,134,i,0.94,-11,.,103
COc1ccc(/C=C/c2ccc(=O)n(Cc3ccccc3)n2)cc1,-8,64,i,0.96,-3,.,103
Cc1ccc(S(=O)(=O)NC(=O)Nc2c(C)n(C)n(-c3ccccc3)c2=O)cc1,.,.,i,0.86,-9,-0.3,100

# Compounds from the list above containing a nitro group on carbon, in the order listed:
SMILES,INS promoter inh,INS promoter inh cell count,HSV augment,HSV augment primary fold,PKD1 inh,GALR2 ag,RGS16-Gao HTS
CCn1c(=O)c([N+](=O)[O-])c(NCc2ccco2)c2ccccc21,.,.,i,0.93,.,.,97
CCn1c(=O)c([N+](=O)[O-])c(NC2CCS(=O)(=O)C2)c2ccccc21 (stereo unspecified),.,.,i,1.1,.,.,100
COC(=O)c1cccc(NC(=O)CCNC(=O)c2ccc([N+](=O)[O-])cc2)c1,-17,82,i,0.97,6,-0.7,108
Cn1c(Cn2cnc([N+](=O)[O-])n2)nnc1SCC(=O)Nc1ccc(Br)cc1,7,124,i,0.92,-1,.,101
CC(=O)N(Cc1ccccc1)Cc1cn(CCC#N)nc1-c1cccc([N+](=O)[O-])c1,-25,111,i,0.93,5,.,99
Cc1ccc(OCC(=O)c2cc(C)n(Cc3cccs3)c2C)c([N+](=O)[O-])n1,.,.,i,1.1,2,.,102
O=C(CN1CCOCC1)N1CCN(c2ccc([N+](=O)[O-])cc2)CC1,48,134,i,0.94,-11,.,103

# New compounds follow
SMILES,INS promoter inh,INS promoter inh cell count,HSV augment,HSV augment primary fold,PKD1 inh,GALR2 ag,RGS16-Gao HTS
O=[N+]([O-])c1ccc(S(=O)(=O)N/N=C/c2cccs2)cc1,24,58,i,1.2,-2,0.0,137
COc1ccc2c(c1)[nH]c1c(=O)n(CCN3CCCC3)cnc12,-81,67,i,0.82,-4,-2.1,123
COc1ccc(CN2CCN(C3CCSCC3)CC2CCO)c(C)c1C (stereo unspecified),.,.,i,0.97,-6,.,124
CCCCc1ccc(-c2ccc(C)cc2O)nc1,36,122,i,0.98,-12,-3.4,96
N#Cc1ccsc1NC(=O)CN1CCN(S(=O)(=O)c2cc(Cl)ccc2Cl)CC1,-3,130,i,1,2,0.0,123
CCOCCCNC(=O)CS(=O)(=O)Cc1nc(-c2cccc(OC)c2)oc1C,-57,50,i,0.86,7,-0.6,106
O=C(N/N=C/c1cccnc1)NC12CC3CC(CC(C3)C1)C2,.,.,i,0.92,.,.,105
Cc1cc(N2CCCCC2)nc(NCc2ccccc2)n1,-3,94,i,0.83,4,-1.0,102
Cc1ccc(NC(=O)N2CCC(C(N)=O)CC2)cc1,36,89,i,0.78,4,-0.9,102
O=C(Nc1ccccc1Oc1ccccc1)C1CCCC1,0,63,i,0.94,0,-0.8,116
CCOC(=O)C1=C(C)NC(=O)C(C(N)=O)C1c1ccccc1 (stereo unspecified),.,.,i,0.94,-7,-0.8,97
CC1(C)NC(=O)N(CCCOc2ccc3c(c2)CCC3)C1=O,-49,65,i,1.1,-6,-2.2,108
O=C(/C=C/Nc1ccc(S(=O)(=O)Nc2cnc3ccccc3n2)cc1)c1ccccc1,.,.,i,0.91,.,.,101
S=c1[nH]nc(-c2cc3c(s2)-c2ccccc2CC3)o1,27,97,i,0.8,-9,9.9,97
COc1ccc(OC)c(NC(=O)CNC(=O)Cn2c(C)cc3ccccc3c2=O)c1,10,143,i,0.87,3,-1.9,114
CCOC(=O)Nc1ccc(S(=O)(=O)Nc2nccc(C)n2)cc1,6,104,i,0.49,-3,-0.6,96
CCOC(=O)C1=C(C)NC(=O)NC1c1cccc(O)c1 (stereo unspecified),-381,52,i,0.85,-8,-3.1,82
S=c1[nH]cnc2sc(-c3ccccc3)cc12,-79,77,i,0.95,1,.,96
O=C(NCC1CCCN(Cc2cccc(C(F)(F)F)c2)C1)c1ccc(F)cc1 (stereo unspecified),.,.,i,0.95,-2,.,101
CN1C(=S)SC(N2OC3C(=O)N(c4ccccc4)C(=O)C3C2c2ccccc2)C1(C)C (stereo unspecified),3,104,i,1.2,6,0.0,106
O=C(COC(=O)c1cnccn1)NCc1ccc(Cl)cc1,0,95,i,1.2,2,.,110
COc1ccc(/C=C2\SC(=O)N=C2N)cc1,32,102,i,0.95,-6,0.2,108
CNc1ccccc1C(C)(C)c1cc(-c2cccc([N+](=O)[O-])c2)no1,.,.,i,1.1,5,.,102
COc1ccc(N(CC(=O)Nc2cc(Cl)ccc2OC)S(=O)(=O)c2c(C)noc2C)cc1,.,.,i,0.56,-1,-1.2,101
CCOC(=O)N1CCN(C(=O)c2cccc(OC)c2O)CC1,5,72,i,0.94,-2,-2.7,101
CC(=C\C(=O)O)/C(=C\c1cccc2ccccc12)C(=O)O,.,.,i,0.88,.,.,102
COc1ccc(Nc2ccccc2C(=O)O)cc1,26,52,i,1,-12,.,101
Cc1ccc(N(C(=O)c2cccs2)C2C=CS(=O)(=O)C2)cc1 (stereo unspecified),.,.,i,1,-10,-2.1,105
